Screening results from PubChem BioAssay.
Insulin prom inh – TRM-6 insulin promoter activity inhibition; TRM-6 cells (human fetal islet line), insulin promoter-eGFP reporter, imaging; reporter expression induced with tamoxifen; inhibition, % at 2 µM; hit rate 0.9% among 130,000;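 active = inhibition above the mean plus 3 SD, with well images judged a real hit on visual review, cut at about 60% in these data, passing the limit was not always enough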
GALR2 agonist – activates the human galanin receptor 2; O43603; GALR2-expressing cells, agonist activation read-out; activation, %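 (tested at 5 µM)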; hit rate 0.48% among 140,000;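 active = above mean plus 3 SD of all compounds, about 5% in these data, not always enough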;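 also: 0% = vehicle buffer wells and 100% = reference agonist at full effect; tested in CHO reporter cells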
PKD1 inh – PKD1 (human) kinase inhibition. Q15139. PKD1 kinase fluorescence polarization assay. inhibition, %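 (about 10 µM by stock and volumes)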. hit rate 0.056% among 200,000;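 active = inhibition of 50% or more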;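 also: controls were vehicle for no effect and a reference inhibitor for full effect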
Target sequence (Q15139 whole entry, looked up): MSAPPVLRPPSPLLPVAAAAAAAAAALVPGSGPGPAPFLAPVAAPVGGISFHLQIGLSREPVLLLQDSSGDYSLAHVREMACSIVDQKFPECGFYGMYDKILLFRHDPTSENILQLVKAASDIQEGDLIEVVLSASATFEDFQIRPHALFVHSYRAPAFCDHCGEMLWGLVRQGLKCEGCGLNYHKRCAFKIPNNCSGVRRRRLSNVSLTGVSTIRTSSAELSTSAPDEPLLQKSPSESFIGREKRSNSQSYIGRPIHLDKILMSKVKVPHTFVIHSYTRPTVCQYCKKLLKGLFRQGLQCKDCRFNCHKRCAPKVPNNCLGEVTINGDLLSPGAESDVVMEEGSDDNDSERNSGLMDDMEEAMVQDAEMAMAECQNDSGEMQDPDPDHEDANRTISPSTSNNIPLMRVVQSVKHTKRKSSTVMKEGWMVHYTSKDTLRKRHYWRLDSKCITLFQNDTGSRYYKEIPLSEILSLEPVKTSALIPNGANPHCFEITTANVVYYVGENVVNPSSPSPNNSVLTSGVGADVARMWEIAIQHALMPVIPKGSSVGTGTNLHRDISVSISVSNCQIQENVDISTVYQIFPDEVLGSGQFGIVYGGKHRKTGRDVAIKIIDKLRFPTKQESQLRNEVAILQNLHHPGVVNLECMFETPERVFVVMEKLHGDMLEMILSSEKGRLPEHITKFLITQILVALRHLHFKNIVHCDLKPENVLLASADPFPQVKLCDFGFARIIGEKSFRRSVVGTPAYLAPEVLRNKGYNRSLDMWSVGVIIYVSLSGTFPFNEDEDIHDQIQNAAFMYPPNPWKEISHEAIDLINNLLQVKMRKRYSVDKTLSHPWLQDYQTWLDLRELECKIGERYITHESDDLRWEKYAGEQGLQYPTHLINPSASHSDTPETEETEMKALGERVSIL
HSV augment – HSV replication enhancement; HSV replication augmentation in cells, fold increase; hit rate 0.005% among 220,000; AID 1956; maximum fold increase;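 active = peak rise of 1.5-fold or more in the series; tested in PC3 cells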;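 also: first round at 10 µM; read as green reporter fluorescence; hits show the peak of a series up to 25 µM; 1 = signal of infected wells without compound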
RGS16-Gao – modulates binding between human RGS16 and Galphao; binding response (% of control), % at 10 µM; bead-based flow cytometry RGS16-Galphao binding, fluorescence; actives lie on both sides; AID 1441; hit rate 0.38% among 220,000;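 active = below 25% or above 175%, edge rows of some plates excepted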;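 also: Galphao activated by GDP with aluminum fluoride before binding; 100% = wells without compound and 0% = beads without RGS; some results beyond the cut were filed as inactive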
Insulin prom inh cell count – also measured in Insulin prom inh; calls as there; normalized cell count, %; measured here: cell count, toxicity; reference of the scale not given here;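 cells exposed to compound for 48 h; stained nuclei by imaging scaled within each plate; lower means fewer cells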
HSV augment primary fold – also measured in HSV augment; calls as there; fold increase; compound at 10 µM; measured here: primary screen fold increase 10 uM; tested in PC3 cells;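 GFP signal in the first replicate; 1 = infected wells without compound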
Active calls of the source: *.

`CCOC(=O)/C(=N/O)C1=NC(C)(C)Cc2cc(C)c(C)cc21` gave Insulin prom inh 56, PKD1 inh -3, HSV augment inactive, RGS16-Gao 110, Insulin prom inh cell count 99 and HSV augment primary fold 1.
Screening NS(=O)(=O)c1ccc(N=C2C(=O)Nc3ccccc32)cc1 returned HSV augment inactive, RGS16-Gao 96 and HSV augment primary fold 1.1.
CC(=O)Nc1ccc(NC(=O)C(C)Oc2ccc(Cl)cc2Cl)cc1 (configuration not stated) was read as Insulin prom inh -18, PKD1 inh 0, HSV augment inactive, RGS16-Gao 97, Insulin prom inh cell count 146 and HSV augment primary fold 0.93.
For COc1ccc(C)cc1S(=O)(=O)N(CC(=O)Nc1cccc([N+](=O)[O-])c1)c1ccc(C)c(C)c1 the results were Insulin prom inh -97, GALR2 agonist -1.1, PKD1 inh -3, HSV augment inactive, RGS16-Gao 102, Insulin prom inh cell count 139 and HSV augment primary fold 1.1.
Cc1cc(C)c(C#N)c(SCC(=O)c2cccs2)n1 was read as GALR2 agonist 0.3, PKD1 inh -7, HSV augment inactive, RGS16-Gao 97 and HSV augment primary fold 0.8.
For c1ccc(CCNc2nc(-c3ccccn3)cs2)cc1 the results were PKD1 inh 7, HSV augment inactive, RGS16-Gao 101 and HSV augment primary fold 1.
Screening Cc1cc2oc(C(=O)Nc3c(C)n(C)n(-c4ccccc4)c3=O)c(C)c2cc1C returned Insulin prom inh -20, GALR2 agonist -1.5, PKD1 inh 10, HSV augment inactive, RGS16-Gao 102, Insulin prom inh cell count 125 and HSV augment primary fold 0.82.
COc1ccc(C2C(C(=O)N3CCN(c4ccc(OC)cc4)CC3)c3ccccc3C(=O)N2C)cc1 (configuration not stated) was read as Insulin prom inh 25, GALR2 agonist -0.2, PKD1 inh 6, HSV augment inactive, RGS16-Gao 100, Insulin prom inh cell count 82 and HSV augment primary fold 0.87.
`O=C(CC1Sc2ccccc2NC1=O)Nc1ccccc1[N+](=O)[O-]` (configuration not stated) gave Insulin prom inh -19, GALR2 agonist -0.6, PKD1 inh 1, HSV augment inactive, RGS16-Gao 65, Insulin prom inh cell count 48 and HSV augment primary fold 0.84.
For COc1ccccc1C/C(N)=N/OC(=O)/C=C/c1ccccc1 the results were PKD1 inh 0, HSV augment inactive, RGS16-Gao 100 and HSV augment primary fold 0.91.

Brought forward from above: two entries, followed by the next part.
`O=C(CC1Sc2ccccc2NC1=O)Nc1ccccc1[N+](=O)[O-]` (configuration not stated) gave Insulin prom inh -19, GALR2 agonist -0.6, PKD1 inh 1, HSV augment inactive, RGS16-Gao 65, Insulin prom inh cell count 48 and HSV augment primary fold 0.84.
For COc1ccccc1C/C(N)=N/OC(=O)/C=C/c1ccccc1 the results were PKD1 inh 0, HSV augment inactive, RGS16-Gao 100 and HSV augment primary fold 0.91.
For COc1ccc(S(=O)(=O)Nc2ccccc2OC)cc1C the results were Insulin prom inh -113, GALR2 agonist -1.2, PKD1 inh 2, HSV augment inactive, RGS16-Gao 82, Insulin prom inh cell count 113 and HSV augment primary fold 1.
CCCCCCC1CC(C)(/C(C)=N/NC(N)=O)OC1=O (configuration not stated) was read as Insulin prom inh 39, GALR2 agonist -1.2, PKD1 inh 6, HSV augment inactive, RGS16-Gao 107, Insulin prom inh cell count 68 and HSV augment primary fold 0.91.
CCOc1cccc(OCCCOc2cccc3cccnc23)c1 was read as Insulin prom inh -41, GALR2 agonist 0.1, PKD1 inh -1, HSV augment inactive, RGS16-Gao 107, Insulin prom inh cell count 85 and HSV augment primary fold 1.1.
`O=C(CNC(=O)c1ccccc1)N/N=C/c1cccs1` gave PKD1 inh 0, HSV augment inactive, RGS16-Gao 103 and HSV augment primary fold 0.95.
Screening O=C(O)CCCC(=O)NCCCc1ccccc1 returned Insulin prom inh 22, GALR2 agonist -2.5, PKD1 inh 8, HSV augment inactive, RGS16-Gao 100, Insulin prom inh cell count 114 and HSV augment primary fold 1.1.
`CCN(CC)S(=O)(=O)c1ccc(Cl)c(C(=O)NC(C)C(c2cccs2)N2CCCC2)c1` (configuration not stated) gave Insulin prom inh -172, PKD1 inh 3, HSV augment inactive, RGS16-Gao 102, Insulin prom inh cell count 111 and HSV augment primary fold 0.98.
COc1ccc(-c2c(C)nn3c(-c4ccccc4)cc(C)nc23)cc1 was read as PKD1 inh -9, HSV augment inactive, RGS16-Gao 95 and HSV augment primary fold 0.78.
For Cc1ccccc1NC(=S)Nc1ccccn1 the results were HSV augment inactive, RGS16-Gao 99 and HSV augment primary fold 1.1.
For COc1cc(NS(=O)(=O)c2cc(C)ccc2OC)c(OC)cc1Cl the results were Insulin prom inh -340, GALR2 agonist -3.2, PKD1 inh -6, HSV augment inactive, RGS16-Gao 77, Insulin prom inh cell count 112 and HSV augment primary fold 1.
For CCCNC(=O)CN(c1ccccc1)S(=O)(=O)c1ccc(OC)c(OC)c1 the results were Insulin prom inh 14, GALR2 agonist -0.8, PKD1 inh -12, HSV augment inactive, RGS16-Gao 43, Insulin prom inh cell count 109 and HSV augment primary fold 0.93.

The final two compounds of the section before are carried over, then new ones follow:
For COc1cc(NS(=O)(=O)c2cc(C)ccc2OC)c(OC)cc1Cl the results were Insulin prom inh -340, GALR2 agonist -3.2, PKD1 inh -6, HSV augment inactive, RGS16-Gao 77, Insulin prom inh cell count 112 and HSV augment primary fold 1.
For CCCNC(=O)CN(c1ccccc1)S(=O)(=O)c1ccc(OC)c(OC)c1 the results were Insulin prom inh 14, GALR2 agonist -0.8, PKD1 inh -12, HSV augment inactive, RGS16-Gao 43, Insulin prom inh cell count 109 and HSV augment primary fold 0.93.
S=c1cnc2ccccc2[nH]1 was read as Insulin prom inh 45, PKD1 inh -8, HSV augment inactive, RGS16-Gao 105, Insulin prom inh cell count 97 and HSV augment primary fold 0.97.
Screening O=C(CCCCCn1c(=S)[nH]c2ccc(N3CCOCC3)cc2c1=O)NCc1ccc2c(c1)OCO2 returned Insulin prom inh 64, PKD1 inh -5, HSV augment inactive, RGS16-Gao 92, Insulin prom inh cell count 138 and HSV augment primary fold 0.7.
COc1ccc(-c2nc3cnccn3c2Nc2ccc3c(c2)OCO3)cc1 was read as GALR2 agonist -0.9, PKD1 inh -16, HSV augment inactive, RGS16-Gao 107 and HSV augment primary fold 0.98.
`O=C(Nc1ccc2c(c1)OCO2)C1CCN(c2ccc(S(=O)(=O)N3CCOCC3)cc2)CC1` gave Insulin prom inh 0, GALR2 agonist -1.2, PKD1 inh 3, HSV augment inactive, RGS16-Gao 112, Insulin prom inh cell count 139 and HSV augment primary fold 1.
`COc1cc(C(=O)NCc2ccc(F)cc2)cc(Cl)c1OC` gave Insulin prom inh 53, GALR2 agonist -0.9, PKD1 inh 6, HSV augment inactive, RGS16-Gao 101, Insulin prom inh cell count 70 and HSV augment primary fold 0.97.
Screening CC(C)CC(=O)Nc1ccc2c(c1)oc1ccccc12 returned Insulin prom inh -72, GALR2 agonist -3.9, PKD1 inh -6, HSV augment inactive, RGS16-Gao 98, Insulin prom inh cell count 95 and HSV augment primary fold 0.9.
`CCOc1ccc(N2CC(C(=O)Nc3cccc(S(=O)(=O)NC4=NCCC4)c3)CC2=O)cc1` (configuration not stated) gave HSV augment inactive, RGS16-Gao 96 and HSV augment primary fold 0.86.
For CCCCNC(=O)c1onc(CSc2cccc(OC)c2)c1C(=O)O the results were GALR2 agonist -3.3, PKD1 inh -7, HSV augment inactive, RGS16-Gao 103 and HSV augment primary fold 0.8.
`CCOc1cc(C(F)(F)F)cnc1/C(N)=N/O` gave HSV augment inactive, RGS16-Gao 115 and HSV augment primary fold 0.94.
For COc1ccc(C2(C)NC(=O)N(CC(=O)NCCC3=CCCCC3)C2=O)cc1OC (configuration not stated) the results were Insulin prom inh 34, GALR2 agonist -0.5, PKD1 inh 11, HSV augment inactive, RGS16-Gao 114, Insulin prom inh cell count 105 and HSV augment primary fold 1.

Quoted at random: 2 compounds from above.
`CCOc1ccc(N2CC(C(=O)Nc3cccc(S(=O)(=O)NC4=NCCC4)c3)CC2=O)cc1` (configuration not stated) gave HSV augment inactive, RGS16-Gao 96 and HSV augment primary fold 0.86.
For COc1ccc(C2(C)NC(=O)N(CC(=O)NCCC3=CCCCC3)C2=O)cc1OC (configuration not stated) the results were Insulin prom inh 34, GALR2 agonist -0.5, PKD1 inh 11, HSV augment inactive, RGS16-Gao 114, Insulin prom inh cell count 105 and HSV augment primary fold 1.

Further structures follow:
O=C(O)C1C2C=CC3(O2)C1C(=O)N1c2ccccc2COC13 (configuration not stated) was read as Insulin prom inh -23, GALR2 agonist -1.3, PKD1 inh -8, HSV augment inactive, RGS16-Gao -15, Insulin prom inh cell count 70 and HSV augment primary fold 0.86.
Cc1ccccc1C(=O)NNC(=S)NC(=O)c1cccnc1 was read as Insulin prom inh 7, GALR2 agonist 0.0, PKD1 inh -7, HSV augment inactive, RGS16-Gao 104, Insulin prom inh cell count 97 and HSV augment primary fold 0.87.
For O=C(O)CCCCCNS(=O)(=O)c1cccc2c1C(=O)c1ccccc1C2=O the results were GALR2 agonist 0.1, PKD1 inh 1, HSV augment inactive, RGS16-Gao 105 and HSV augment primary fold 1.1.
`C/C=C/C(=O)OCC(=O)Nc1cc([N+](=O)[O-])ccc1Cl` gave Insulin prom inh -14, GALR2 agonist -0.3, PKD1 inh -7, HSV augment inactive, RGS16-Gao 103, Insulin prom inh cell count 132 and HSV augment primary fold 0.91.
Screening COc1ccc(S(=O)(=O)Nc2ccc(F)c(F)c2)cc1Cl returned Insulin prom inh 71, GALR2 agonist -0.7, PKD1 inh -8, HSV augment inactive, RGS16-Gao 102, Insulin prom inh cell count 107 and HSV augment primary fold 0.97.
For C[C@@H]1NC(=O)c2cc([N+](=O)[O-])cc(I)c2OCC[C@@H](C(=O)NC(CC(=O)O)C(N)=O)NC(=O)[C@H](CC(N)=O)NC1=O (some centres not stated) the results were Insulin prom inh 45, GALR2 agonist -3.0, PKD1 inh 15, HSV augment inactive, RGS16-Gao 109, Insulin prom inh cell count 104 and HSV augment primary fold 1.1.
`Cc1cc(/C=C2\C(=O)NN(c3ccccc3)C2=O)c(C)n1-c1ccccc1O` gave HSV augment inactive, RGS16-Gao 106 and HSV augment primary fold 0.92.
For CC[C@H](C)[C@H](NC(N)=O)C(=O)Nc1ccc2c(c1)OCO2 the results were PKD1 inh 1, HSV augment inactive, RGS16-Gao 99 and HSV augment primary fold 1.
COc1ccc2[nH]c(=O)c(CNc3ccccc3C)cc2c1 was read as HSV augment inactive, RGS16-Gao 101 and HSV augment primary fold 0.99.
Screening CN(C)c1ncnc2c1ncn2C1OC(CO)C(O)C1O (configuration not stated) returned Insulin prom inh 92*, GALR2 agonist -2.2, PKD1 inh 1, HSV augment inactive, RGS16-Gao 102, Insulin prom inh cell count 101* and HSV augment primary fold 0.96.
Screening CSc1ccccc1C(=O)NC1CC2CCC1C2 (configuration not stated) returned Insulin prom inh 25, GALR2 agonist -1.0, PKD1 inh 4, HSV augment inactive, RGS16-Gao 93, Insulin prom inh cell count 82 and HSV augment primary fold 0.96.
For Cc1ccc(CCNC(=O)C2CCN(C(=O)c3sccc3-n3cccc3)CC2)cc1 the results were GALR2 agonist -2.9, PKD1 inh 4, HSV augment inactive, RGS16-Gao 101 and HSV augment primary fold 0.99.
`COc1cccc(C(=O)/C=C/Nc2ccc(S(=O)(=O)Nc3ccc(C(C)=O)cc3)cc2)c1` gave Insulin prom inh 9, GALR2 agonist -0.2, PKD1 inh 10, HSV augment inactive, RGS16-Gao 54, Insulin prom inh cell count 67 and HSV augment primary fold 1.1.
Screening CC(=O)c1c(C)[nH]c(C(=O)OCC(=O)Nc2ccc(Cl)cc2[N+](=O)[O-])c1C returned GALR2 agonist -0.2, PKD1 inh -7, HSV augment inactive, RGS16-Gao 106 and HSV augment primary fold 0.96.
Screening COc1cccc(N2C(=O)C(CC(=O)Nc3ccc(F)cc3)N(C3CCCCC3)C2=O)c1 (configuration not stated) returned Insulin prom inh -15, GALR2 agonist -1.3, PKD1 inh -4, HSV augment inactive, RGS16-Gao 100, Insulin prom inh cell count 88 and HSV augment primary fold 0.92.
Screening CC1CC(=O)c2cnc(NCC3CCCO3)nc2C1 (configuration not stated) returned Insulin prom inh -32, GALR2 agonist -0.8, PKD1 inh -7, HSV augment inactive, RGS16-Gao 88, Insulin prom inh cell count 51 and HSV augment primary fold 1.1.
O=C(Nc1nnc(-c2ccccc2)o1)NC1CCCCC1 was read as Insulin prom inh -13, GALR2 agonist -1.7, PKD1 inh -3, HSV augment inactive, RGS16-Gao 99, Insulin prom inh cell count 59 and HSV augment primary fold 0.8.
Screening CCCCCn1ccc(=O)c2c(C(F)(F)F)nccc21 returned Insulin prom inh 44, GALR2 agonist -1.7, PKD1 inh -1, HSV augment inactive, RGS16-Gao 103, Insulin prom inh cell count 93 and HSV augment primary fold 0.92.
Screening O=C(Nc1ccc(N2CCOCC2)cc1)C1CC(O)CN1S(=O)(=O)c1ccc(Cl)cc1 (configuration not stated) returned PKD1 inh -7, HSV augment inactive, RGS16-Gao 103 and HSV augment primary fold 1.

Outcome played no part in choosing rows (roughly 1.3% active in at least one column).
